Screening data deposited in PubChem BioAssay by Broad Institute.
Vaccinia stage: blocks a specific stage of Vaccinia orthopoxvirus infection, primary screen, cell-based, single point | activity change (mCherry), % (test concentration not listed) | Vaccinia-infected cells, mCherry/Venus stage reporter fluorescence; hits give low values; some inactives read as strong as hits | actives 0.01% (n = 89,000) | AID 1053133, 2014;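 active = mCherry past -33% and 40 or more points under the early reporter, replicates agreeing; inconclusive = past -33% without that gap or agreement; tested in A549 cells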;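 note: scaled between vehicle wells and reference inhibitor wells; 23 nL library stock went into each well; one replicate is shown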
Vaccinia stage Venus: also measured in Vaccinia stage; calls as there; activity change (Venus), %; measured here: Venus reporter, other viral stage;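 negative = less Venus signal; first of two replicates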
Starred values were filed as active, the others as inactive; & = joins results of further samples. Not all compounds are listed; the hit share may differ from the screen's.

Results for COc1cccc(-c2ccc([C@H]3[C@@H](CO)N(C(=O)Cc4ccccc4)[C@H]3C#N)cc2)c1 ?
Vaccinia stage: inconclusive

Results for C[C@@H](NC(=O)[C@H]1[C@H](CO)[C@H]2Cn3c(cccc3=O)[C@H]2N1Cc1ccncc1)c1ccccc1 ?
Vaccinia stage: 0; Vaccinia stage Venus: 9

How did O=C(Nc1nccs1)[C@H]1[C@H](CO)[C@H]2Cn3c(ccc(-c4cncnc4)c3=O)[C@H]2N1CC1CCCC1 do in these assays?
Vaccinia stage: 1; Vaccinia stage Venus: 4

Results for COc1ccc(OC(=O)N(C)C[C@@H]2OCc3cnnn3CCCC(=O)N([C@H](C)CO)C[C@@H]2C)cc1 ?
Vaccinia stage: 10; Vaccinia stage Venus: 18

Results for COc1cccc(-c2ccc(C3[C@@H]4CN(C(=O)Nc5ccc(F)cc5)C[C@H]3N4)cc2)c1 (some centres undefined) ?
Vaccinia stage: inconclusive

What do the screens show for `CCCNC(=O)N1[C@H](C#N)[C@@H](c2ccc(C3=CCCCC3)cc2)[C@@H]1CO`?
Vaccinia stage: -16; Vaccinia stage Venus: -5

How did O=C(C[C@@H]1CC[C@@H](NS(=O)(=O)c2ccc(F)cc2)[C@@H](CO)O1)NCc1ccccc1F do in these assays?
Vaccinia stage: 11; Vaccinia stage Venus: 7

How did C[C@H](CO)N1C[C@H](C)[C@@H](CN(C)C(=O)Nc2ccc(F)cc2)Oc2cc(-c3cccc(C(=O)N(C)C)c3)ccc2S1(=O)=O do in these assays?
Vaccinia stage: 34; Vaccinia stage Venus: 13

Results for C[C@@H]1CN([C@H](C)CO)C(=O)c2cc(/C=C/c3ccccc3)cnc2O[C@@H]1CN(C)C(=O)Cc1cccnc1 ?
Vaccinia stage: 12; Vaccinia stage Venus: 1

Results for CN1c2ccc(Br)cc2[C@H]2[C@H](CCN2S(=O)(=O)c2ccc(F)cc2)[C@@H]1CO ?
Vaccinia stage: -17; Vaccinia stage Venus: -28

Results for COc1ccc(CN(C)C[C@@H]2Oc3c(NS(=O)(=O)c4cccs4)cccc3C(=O)N([C@H](C)CO)C[C@@H]2C)cc1 ?
Vaccinia stage: 8; Vaccinia stage Venus: 3

How did CN1C(=O)c2cc(NC(=O)C3CCOCC3)ccc2OC[C@H]2O[C@@H](CC(=O)NCC3CCCCC3)CC[C@@H]21 do in these assays?
Vaccinia stage: 4; Vaccinia stage Venus: 7

How did COc1ccccc1-c1cnc2c(c1)C(=O)N([C@@H](C)CO)C[C@@H](C)[C@H](CN(C)C(=O)CN(C)C)O2 do in these assays?
Vaccinia stage: 3; Vaccinia stage Venus: -1

How did C[C@H](CO)N1C[C@H](C)[C@H](CN(C)C(=O)Nc2ccc3c(c2)OCO3)Oc2c(NC(=O)c3ccncc3)cccc2C1=O do in these assays?
Vaccinia stage: 11; Vaccinia stage Venus: 5

What do the screens show for `O=C(C1CCCC1)N1CC2(C1)[C@@H](c1ccccc1)[C@@H](CO)N2C(=O)CC1CC1`?
Vaccinia stage: 9; Vaccinia stage Venus: 6

Results for C[C@H]1CN([C@@H](C)CO)C(=O)Cc2cc(NC(=O)CCCCCC(=O)Nc3ccccc3N)ccc2O[C@@H]1CN(C)Cc1ccc(Oc2ccccc2)cc1 ?
Vaccinia stage: -20; Vaccinia stage Venus: -6

Results for COc1cccc(-c2ccc([C@H]3[C@@H](CO)N4CCCCN(S(=O)(=O)c5cn(C)cn5)C[C@@H]34)cc2)c1 ?
Vaccinia stage: -1; Vaccinia stage Venus: -2

What do the screens show for `O=C(C[C@H]1CC[C@H]2[C@@H](COC[C@H](O)CN2Cc2ccc(Oc3ccccc3)cc2)O1)N1CCCCC1`?
Vaccinia stage: inconclusive

What do the screens show for `O=C(C[C@H]1CC[C@@H]2[C@H](COC[C@@H](O)CN2S(=O)(=O)c2ccccc2)O1)NCc1ccc(-c2ccccc2)cc1`?
Vaccinia stage: inconclusive

What do the screens show for `Cc1noc(C)c1NC(=O)Nc1cccc2c1O[C@H](CN(C)S(=O)(=O)c1cn(C)cn1)[C@H](C)CN([C@@H](C)CO)C2=O`?
Vaccinia stage: 7; Vaccinia stage Venus: 5

Seven structures out of the list, sorted by SMILES length, ascending.
Results for CN1c2ccc(Br)cc2[C@H]2[C@H](CCN2S(=O)(=O)c2ccc(F)cc2)[C@@H]1CO ?
Vaccinia stage: -17; Vaccinia stage Venus: -28

Results for COc1cccc(-c2ccc(C3[C@@H]4CN(C(=O)Nc5ccc(F)cc5)C[C@H]3N4)cc2)c1 (some centres undefined) ?
Vaccinia stage: inconclusive

How did O=C(C[C@@H]1CC[C@@H](NS(=O)(=O)c2ccc(F)cc2)[C@@H](CO)O1)NCc1ccccc1F do in these assays?
Vaccinia stage: 11; Vaccinia stage Venus: 7

How did O=C(Nc1nccs1)[C@H]1[C@H](CO)[C@H]2Cn3c(ccc(-c4cncnc4)c3=O)[C@H]2N1CC1CCCC1 do in these assays?
Vaccinia stage: 1; Vaccinia stage Venus: 4

How did CN1C(=O)c2cc(NC(=O)C3CCOCC3)ccc2OC[C@H]2O[C@@H](CC(=O)NCC3CCCCC3)CC[C@@H]21 do in these assays?
Vaccinia stage: 4; Vaccinia stage Venus: 7

How did COc1ccccc1-c1cnc2c(c1)C(=O)N([C@@H](C)CO)C[C@@H](C)[C@H](CN(C)C(=O)CN(C)C)O2 do in these assays?
Vaccinia stage: 3; Vaccinia stage Venus: -1

Results for C[C@@H]1CN([C@H](C)CO)C(=O)c2cc(/C=C/c3ccccc3)cnc2O[C@@H]1CN(C)C(=O)Cc1cccnc1 ?
Vaccinia stage: 12; Vaccinia stage Venus: 1

The results go on:
How did O=C(Nc1ccc(F)cc1)N[C@@H]1C=C[C@H](CC(=O)N2CCCCC2)O[C@@H]1CO do in these assays?
Vaccinia stage: -17; Vaccinia stage Venus: -22

How did CC(C)C#Cc1cnc2c(c1)C(=O)N([C@@H](C)CO)C[C@@H](C)[C@@H](CN(C)C(=O)Nc1ccccc1F)O2 do in these assays?
Vaccinia stage: -2; Vaccinia stage Venus: -5

Results for CN(C)CC#Cc1ccc([C@@H]2[C@@H](CO)N3CCCCN(C(=O)c4ccc5c(c4)OCO5)C[C@H]23)cc1 ?
Vaccinia stage: 11; Vaccinia stage Venus: 6

Results for C[C@@H]1CN([C@H](C)CO)C(=O)Cc2cc(NC(=O)Nc3ccccc3)ccc2O[C@H]1CN(C)Cc1ccncc1 ?
Vaccinia stage: 7; Vaccinia stage Venus: 8

What do the screens show for `CC(=O)N1[C@@H]2c3ccc(-c4cccnc4)c(=O)n3C[C@@H]2[C@@H](CO)[C@@H]1C(=O)N1CCc2ccccc2C1`?
Vaccinia stage: -1; Vaccinia stage Venus: 1

What do the screens show for `CCCC#Cc1ccc2c(c1)O[C@@H](CN(C)Cc1ccccn1)[C@@H](C)CN([C@@H](C)CO)S2(=O)=O`?
Vaccinia stage: -28; Vaccinia stage Venus: -20

Results for C[C@@H]1CN([C@@H](C)CO)C(=O)c2ccccc2-c2ccccc2CO[C@@H]1CN(C)C(=O)[C@H](C)c1ccccc1 ?
Vaccinia stage: 5; Vaccinia stage Venus: 10

Results for CCCNC(=O)N1C[C@H](C)[C@@H](OC)CN(C)C(=O)c2cc(NC(=O)CCC)ccc2OC[C@H]1C ?
Vaccinia stage: 2; Vaccinia stage Venus: 4

What do the screens show for `Cc1ccc(S(=O)(=O)N(C)C[C@@H]2Oc3c(NC(=O)Nc4c(C)noc4C)cccc3C(=O)N([C@@H](C)CO)C[C@@H]2C)cc1`?
Vaccinia stage: 0; Vaccinia stage Venus: -3

How did C[C@@H]1CCCCO[C@@H](CN(C)Cc2ccc(Cl)c(Cl)c2)[C@@H](C)CN([C@@H](C)CO)C(=O)c2cc(NC(=O)c3ccccc3)ccc2O1 do in these assays?
Vaccinia stage: inconclusive

How did C[C@H](NC(=O)C[C@@H]1CC[C@@H](NC(=O)C2CC2)[C@@H](CO)O1)c1ccccc1 do in these assays?
Vaccinia stage: 9; Vaccinia stage Venus: 3

What do the screens show for `COc1ccc(S(=O)(=O)N2C[C@@H](O)COC[C@@H]3O[C@H](CC(=O)NCCCN4CCOCC4)CC[C@H]32)cc1`?
Vaccinia stage: 4; Vaccinia stage Venus: -2

What do the screens show for `COc1cccc(C(=O)Nc2ccc3c(c2)OC[C@@H](C)N(CCc2ccccc2)C[C@H](C)[C@@H](OC)CN(C)C3=O)c1`?
Vaccinia stage: inconclusive

How did COc1ccc2c3c([nH]c2c1)[C@@H](CO)N(C(=O)c1ccncc1)CC31CCN(C(=O)C2CCC2)CC1 do in these assays?
Vaccinia stage: 30; Vaccinia stage Venus: 12

What do the screens show for `C[C@@H]1CCCCO[C@@H](CN(C)Cc2ccncc2)[C@H](C)CN([C@@H](C)CO)C(=O)c2cc(NC(=O)CCCCCC(=O)Nc3ccccc3N)ccc2O1`?
Vaccinia stage: 40; Vaccinia stage Venus: 14

What do the screens show for `COCC(=O)Nc1ccc2c(c1)[C@@H]1C[C@H](CC(=O)NCC(F)(F)F)O[C@H](CO)[C@@H]1O2`?
Vaccinia stage: 5; Vaccinia stage Venus: 5

How did C[C@@H]1CN([C@H](C)CO)S(=O)(=O)c2ccc(C3=CCCCC3)cc2O[C@@H]1CN(C)C(=O)c1ccncc1 do in these assays?
Vaccinia stage: -12; Vaccinia stage Venus: -15

Results for CNC[C@H]1Oc2ccc(NS(=O)(=O)c3ccc(C)cc3)cc2C(=O)N([C@@H](C)CO)C[C@H]1C ?
Vaccinia stage: 12; Vaccinia stage Venus: -1

Results for C[C@@H]1CN([C@H](C)CO)C(=O)Cc2cc(NC(=O)Nc3ccc(C(F)(F)F)cc3)ccc2O[C@H]1CN(C)C ?
Vaccinia stage: -1; Vaccinia stage Venus: -6

How did O=C(N[C@H]1C=C[C@H](CC(=O)N2CCc3ccccc3C2)O[C@@H]1CO)C1CC1 do in these assays?
Vaccinia stage: 1; Vaccinia stage Venus: -3

How did CO[C@H]1CN(C)C(=O)c2cc(NC(=O)C3CC3)ccc2OC[C@@H](C)N(C(=O)c2cnccn2)C[C@H]1C do in these assays?
Vaccinia stage: 8; Vaccinia stage Venus: 2

What do the screens show for `CN1C(=O)c2cc(NC(=O)NCc3ccccc3)ccc2OC[C@H]2O[C@@H](CC(=O)O)CC[C@@H]21`?
Vaccinia stage: 12; Vaccinia stage Venus: 10

Results for C[C@H](CO)N1C[C@H](C)[C@H](CN(C)C)Oc2ccc(NC(=O)c3ccncc3)cc2C1=O ?
Vaccinia stage: 3; Vaccinia stage Venus: -2

How did CNC[C@@H]1Oc2ncc(-c3cccc(F)c3)cc2C(=O)N([C@H](C)CO)C[C@@H]1C do in these assays?
Vaccinia stage: -26&-26; Vaccinia stage Venus: -6&-4

Results for CO[C@H]1CN(C)C(=O)c2ccc(NC(=O)C3CCC3)cc2OC[C@H](C)N(C)C[C@H]1C ?
Vaccinia stage: 4; Vaccinia stage Venus: 7

How did CCC(=O)N1[C@@H]2Cn3c(ccc(-c4ccccc4)c3=O)[C@H]1[C@@H](C(=O)N1CCc3ccccc3C1)[C@@H]2CO do in these assays?
Vaccinia stage: 3; Vaccinia stage Venus: 0

Results for O=S(=O)(N[C@H]1CC[C@@H](CCn2cc(-c3cccnc3)nn2)O[C@@H]1CO)c1ccc(F)cc1 ?
Vaccinia stage: 3; Vaccinia stage Venus: 10

Results for COc1cccc(C(=O)N2C[C@@H]3[C@H](c4ccccc42)[C@@H](CO)N3C(C)=O)c1 ?
Vaccinia stage: 16; Vaccinia stage Venus: 11

Results for C[C@@H]1CN([C@@H](C)CO)C(=O)c2cc(NS(=O)(=O)c3ccccc3)ccc2O[C@H]1CN(C)C(=O)Nc1cccc2ccccc12 ?
Vaccinia stage: 23; Vaccinia stage Venus: 14

How did C[C@@H]1CN([C@@H](C)CO)C(=O)c2cc(NS(=O)(=O)c3cn(C)cn3)ccc2O[C@@H](C)CCCCO[C@H]1CN(C)S(=O)(=O)c1ccc(Cl)cc1 do in these assays?
Vaccinia stage: 14; Vaccinia stage Venus: 4

Results for COc1ccc2c3c(n(C)c2c1)[C@H](CO)N(C(=O)c1ccncc1)CC31CN(C)C1 ?
Vaccinia stage: -8; Vaccinia stage Venus: -9

How did CO[C@H]1CN(C)C(=O)c2ccc(NS(=O)(=O)c3ccc(C)cc3)cc2OC[C@@H](C)NC[C@H]1C do in these assays?
Vaccinia stage: -1; Vaccinia stage Venus: 2

How did O=C(N[C@@H](Cc1ccccc1)Cn1cc(CN2C(=O)COC[C@H]2c2ccccc2)nn1)c1ccccc1 do in these assays?
Vaccinia stage: 0; Vaccinia stage Venus: -1

How did C[C@H]1CCCCO[C@@H](CN(C)Cc2ccncc2)[C@@H](C)CN([C@@H](C)CO)C(=O)c2cc(NC(=O)CCC(F)(F)F)ccc2O1 do in these assays?
Vaccinia stage: -1; Vaccinia stage Venus: -3

Results for O=C(C[C@H]1CC[C@@H]2[C@H](COC[C@H](O)CN2C(=O)c2cnccn2)O1)NCc1ccc(Cl)cc1 ?
Vaccinia stage: 9; Vaccinia stage Venus: 11

What do the screens show for `Cc1noc(C)c1S(=O)(=O)Nc1ccc2c(c1)CC(=O)N([C@H](C)CO)C[C@H](C)[C@@H](CN(C)S(=O)(=O)c1cccs1)O2`?
Vaccinia stage: 2; Vaccinia stage Venus: 1

How did C[C@@H]1CCCCO[C@@H](CN(C)C(=O)Cc2ccccc2)[C@H](C)CN([C@@H](C)CO)C(=O)c2cc(NS(=O)(=O)c3cn(C)cn3)ccc2O1 do in these assays?
Vaccinia stage: 12; Vaccinia stage Venus: 7

How did C[C@H]1CN([C@@H](C)CO)C(=O)c2c(c3ccccc3n2C)-c2ccccc2CO[C@@H]1CN(C)S(=O)(=O)c1cccc(C#N)c1 do in these assays?
Vaccinia stage: -23; Vaccinia stage Venus: -24

Results for CNC[C@H]1Oc2ccc(NC(=O)Nc3ccc4c(c3)OCO4)cc2CC(=O)N([C@H](C)CO)C[C@H]1C ?
Vaccinia stage: 12; Vaccinia stage Venus: 1
